# gsp ag – qHTS for Agonist of gsp, the Etiologic Mutation Responsible for Fibrous Dysplasia/McCune-Albright Syndrome: qHTS | gsp mutant cells, cAMP HTRF, 30 min; control for the full effect not named in the record | Potency, µM (series often up to 76.9 µM), inactives show at the top dose activation (cAMP increase), actives largely listed as activators | 340,000 tested, 0.13% active | AID 624287, 2012; active = well fitted activation curve with a large enough effect; inconclusive = small, poorly fitted or top-dose-only effect, or another doubt; inactive = no such curve, though single readings can be large or run the other way; cell line not stated here;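 note: phosphodiesterase inhibitor Ro 20-1724 added with compounds to block cAMP breakdown; potency is the fitted concentration of half-maximal effect; nearly all actives have a fitted effect of over 60% in size; about a fifth of the inactives were tested at one dose only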
#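 Cells in DMEM/10% FBS with G418 were pretreated with compounds in DMSO plus […] (300 uM stock) for 30 min at 37C. cAMP was measured by HTRF (cAMP-d2 plus anti-cAMP antibody-K) after 30 min at room temperature.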
# TRPV1 PAM – HTS Assay for Compounds that Act as Potentiators of the Vanilloid Receptor 1. TRPV1-expressing cells, Fluo-8 calcium influx, capsaicin EC20 potentiation; host cell line not named in the record; control for the full effect not named in the record. potentiation, % at 8.33 µM. 320,000 tested, 0.02% active. AID 540277, 2011; active means potentiation above 80%; inconclusive means 30% to 80%; inactive means below 30%; note: 0% is about no effect
# Target sequence (Q8NER1 whole entry, looked up): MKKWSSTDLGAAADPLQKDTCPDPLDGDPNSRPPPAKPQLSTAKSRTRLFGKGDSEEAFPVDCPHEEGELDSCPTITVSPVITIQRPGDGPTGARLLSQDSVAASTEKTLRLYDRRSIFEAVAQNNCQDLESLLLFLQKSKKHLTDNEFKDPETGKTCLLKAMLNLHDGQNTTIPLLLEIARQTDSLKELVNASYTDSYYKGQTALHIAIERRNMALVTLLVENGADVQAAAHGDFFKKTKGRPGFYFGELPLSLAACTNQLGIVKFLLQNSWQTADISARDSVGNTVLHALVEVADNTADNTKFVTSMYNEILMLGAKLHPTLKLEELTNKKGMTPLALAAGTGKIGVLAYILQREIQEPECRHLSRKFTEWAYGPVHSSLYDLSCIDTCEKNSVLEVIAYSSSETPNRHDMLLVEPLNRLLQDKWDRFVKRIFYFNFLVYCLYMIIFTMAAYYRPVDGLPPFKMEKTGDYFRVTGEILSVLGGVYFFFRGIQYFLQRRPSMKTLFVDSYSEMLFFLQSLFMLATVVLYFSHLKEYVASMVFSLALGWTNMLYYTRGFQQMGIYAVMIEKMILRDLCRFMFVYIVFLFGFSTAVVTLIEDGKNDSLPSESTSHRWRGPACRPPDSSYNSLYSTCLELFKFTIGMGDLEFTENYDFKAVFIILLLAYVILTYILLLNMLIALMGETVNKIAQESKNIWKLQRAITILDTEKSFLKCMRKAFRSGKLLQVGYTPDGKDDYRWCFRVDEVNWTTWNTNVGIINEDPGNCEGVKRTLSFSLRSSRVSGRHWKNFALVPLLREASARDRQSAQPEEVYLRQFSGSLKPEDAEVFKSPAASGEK
#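 TRPV1-expressing cells were cultured overnight at 35.5C and loaded with Fluo-8 calcium dye for 40 to 90 min at room temperature. After a 10 s baseline, compound was added and calcium influx was read kinetically for 3 min (ex 480/em 520 nm).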
# Sfp inh – qHTS Assay for Inhibitors of Bacillus subtilis Sfp phosphopantetheinyl transferase (PPTase) | 4'-phosphopantetheinyl transferase ffp (Bacillus subtilis), Q9F4F7 | 310,000 tested, 3.5% active | Potency, µM, without a hit: max response, negative = inhibition, usual class: inhibitors | Biochemical Sfp PPTase activity, qHTS; active = well fitted inhibition curve with a large enough effect; inconclusive = small, poorly fitted or top-dose-only effect, or another doubt; inactive = no such curve, though single readings can be large or run the other way;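 note: the enzyme is Sfp with the accession as filed and its product quenches rhodamine fluorescence; potency is the fitted concentration of half-maximal effect; 0% = enzyme reaction without inhibitor and -100% = no enzyme wells; top concentration of the series not given in the record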
#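 With Hepes-Na pH 7.6 buffer containing 10 mM MgCl2, Sfp (15 nM) modified BHQ-2-YbbR (12.5 uM) using rhodamine-CoA (5 uM). Two reads 30 minutes apart at 525/598 nm yielded each well's rate.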
# CtBP-E1A blk – qHTS Assay for Inhibitors of the CtBP/E1A Interaction; CtBP / adenovirus E1A interaction (AlphaScreen); AlphaScreen GST-E1A/His-CtBP binding, 1536-well; active compounds read low; control for the full effect not named in the record; activity change, % (test concentration not listed); 340,000 tested, 0.49% active; in the data active means activity change below about -65%; inconclusive means about -30% to -65%; inactive means above about -30%; note: % is set by controls: 0 for no effect and ±100 for the full control effect
#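 AlphaScreen with 125 nM GST-E1A and 125 nM His-CtBP (5X stocks) in Tris pH 8.0, 300 mM NaCl, BSA, Tween 20, TCEP. Compounds preincubated 2 h at 37 deg C, then glutathione donor/nickel acceptor beads added for 1 h at 37 deg C in dark.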
# gsp antag – qHTS for Antagonists of gsp, the Etiologic Mutation Responsible for Fibrous Dysplasia/McCune-Albright Syndrome: qHTS. gsp-mutant cells, cAMP HTRF, 30 min; control for the full effect not named in the record. Potency, µM (top dose mostly 76.9 µM), for inactives: top-dose activity change, negative = inhibition, usual class: inhibitors. 340,000 tested, 0.4% active; active = falling curve of any shape with a large fitted effect; inconclusive = falling curve, mostly with a smaller effect; inactive = flat or rising curve; cell line not stated here;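 note: intracellular cAMP measured with PDE inhibitor Ro 20-1724 present during compound exposure; potency is the fitted concentration of half-maximal effect; % is set by controls: 0 for no effect and ±100 for the full control effect; nearly all actives have a fitted effect of over 65% in size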
#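 Cells in G418 medium, seeded 16-24 h, 37C; buffer exchange to DPBS + 1 mM CaCl2, 0.5 mM MgCl2, 0.05% BSA; cpds in DMSO + […] (300 uM stock), 30 min 37C; HTRF cAMP detection.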
# Menin-MLL FL inh – qHTS Assay for Inhibitors Targeting the Menin-MLL Interaction in MLL Related Leukemias: Competition With Fluorescein Labeled MLL-derived Peptide; FP activity change, % at 61.4 µM; AID 1766, 2009; Fluorescence polarization, fluorescein-MLL peptide displacement from menin; 290,000 tested, under 10 active; inconclusive = falling polarisation curve, or a change in total fluorescence; inactive = total fluorescence flat and polarisation flat or rising; no compound was filed as active; the % refers to the polarisation; negative = inhibition;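 note: % of control where 0% means no effect; inhibitors lower the polarisation; unlabelled MLL peptide was the positive control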
# ClpP mod – qHTS Assay for Activators of ClpP | Potency, µM (doses to about 57.5 µM), for the others: at the top dose activity change, negative = active | purified B. subtilis ClpP, FRET peptide cleavage, 20 min | 340,000 tested, 1.9% active | ATP-dependent Clp protease proteolytic subunit (Bacillus subtilis (strain 168)), P80244 | AID 651965, 2013; active = well fitted falling curve with a large enough effect; inconclusive = small, poorly fitted or top-dose-only effect; inactive = no such curve, though single readings can be large or run the other way; note: potency is the fitted concentration of half-maximal effect; the source files actives as falling curves though it sought activators and does not explain the sign; nearly all actives have a fitted effect of over 65% in size; many hits overshoot -100%
# Target sequence (P80244 whole entry, looked up): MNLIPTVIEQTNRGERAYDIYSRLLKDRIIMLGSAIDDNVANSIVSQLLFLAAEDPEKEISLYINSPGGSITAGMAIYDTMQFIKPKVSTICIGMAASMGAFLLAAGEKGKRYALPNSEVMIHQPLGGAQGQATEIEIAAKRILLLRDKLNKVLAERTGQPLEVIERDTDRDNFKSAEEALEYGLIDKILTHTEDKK
#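 Buffer: 100 mM Tris/HCl pH8, 100 mM KCl, 0.05% low protease BSA, 2.5% glycerol, 0.01% Tween-20. ClpP 10 microg/mL final; 20 min RT; delta FRET normalized to ADEP and DMSO controls.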
# * marks the source's active call; other numbers are inactive results; u = inconclusive; x = not tested or not shown; & = joins results of further samples; [ ] = another dose, or the depositor's remark.
SMILES,gsp ag,TRPV1 PAM,Sfp inh,CtBP-E1A blk,gsp antag,Menin-MLL FL inh,ClpP mod
CCCS(=O)(=O)N1CCCC(C(=O)NCCN(Cc2ccccc2)C(C)C)C1 (stereo not given),2%,-24,5%,10,17%,2.9,-1.0%
CCC(Sc1nc(N)cc(N)n1)C(=O)O (stereo not given),-39%[inhibitor],1,12%,2,-5%,2.1,-0.7%
O=C(Cn1nc(-c2ccccc2)ccc1=O)Nc1cccc(NC(=O)c2ccccn2)c1,x,-2,-12%,x,x,0.2,x
Cc1cc(C)c(S(=O)(=O)N2CCN(C(=O)CCOc3ccccc3C)CC2)c(C)c1,-14%,-9,x,7,10%,x,0.4%
Cc1cccc(C2=NN(c3ccc(Br)cc3)[C@@H](C(=O)N3CCOC3=O)[C@@H]2c2ccc(F)cc2)c1,2%,1,15%&13%,x,-12%,0.4&7.0,4.5%
CNC(=O)CNC(=O)Nc1ccc(Cl)c(Cl)c1,-39%[inhibitor],5,9%,0,5%,-7.5,x
COc1ccc(C(=O)OC2CCCCC2CN(C)C)cc1 (stereo not given),3%,-2,-2%,x,5%,-0.9,0.0%
Cc1nn(-c2ccccc2)nc1C(=O)OCC(=O)N1CCC(C)CC1,-75%[inhibitor],-26,x,-3,-9%,x,4.0%
O=C(NC(=O)N1CCCCCC1)c1ccc(Cl)cc1,26%,13,7%,7,10%,0.1,-0.7%
COc1ccc(NC2CCCN(C(=O)c3ccc4[nH]c(C)c(C)c4c3)C2)cc1 (stereo not given),-13%,0,0%,-10,-7%,0.2,0.1%
S=c1nc[nH]c2c1[nH]c1ccccc12,13µM*,0,-25%,13,55%[activator],1.0,-7.4%
COc1ccc(CCN(C(=O)C(F)(F)F)C(C(=O)NC2CCCCC2)c2ccc(C)s2)cc1 (stereo not given),7%,-8,20%,-3,4%,1.4,-0.2%
Cn1c(NC(=O)/C=C/c2c(F)cccc2Cl)cc(=O)n(C)c1=O,-2%[15.4 µM],-17,18%,2,2%,3.3,x
O=C(Nc1ccn(Cc2c(F)c(F)cc(F)c2F)n1)c1ccc(COc2cc(Cl)ccc2Cl)o1,-26%,3,u,-2,-4%,-0.9,-3.2%
CC(=O)Nc1ccc(OC/C=C(\C)Cl)cc1,26%,-5,0%,2,14%,-0.1,-1.1%
Cn1cnnc1SCC(=O)Nc1c(F)cc(F)cc1Br,3%,5,5%,0,2%,1.3,-1.1%
COc1cc(OC)c(C(=O)OCC(=O)N2CC(=O)Nc3ccccc32)cc1OC,-4%,15,15%,-1,5%,-3.9,-5.2%
CN(C)c1ccc([N+](=O)[O-])cc1C(=O)NCC(c1ccco1)N(C)C (stereo not given),11%[15.4 µM],2,-2%,7,9%,-0.1,x
CCCc1nn(C)c2c(=O)[nH]c(-c3cc(S(=O)(=O)N(CCO)CCO)ccc3OCC)nc12,11%,20,9%,7,-8%,-0.7,-0.8%
CCOc1ccccc1NC(=O)NNS(=O)(=O)c1ccc([N+](=O)[O-])cc1,1%,13,-2%,0,1%,-1.2,0.8%
O=C(Nc1ccccc1)C1=C[C@H](c2coc3ccccc3c2=O)C[C@H](OCc2ccc(CO)cc2)O1,-2%,22,-1%,2,u,18,0.2%
CC(NC(=O)Nc1cccnc1)(C(F)(F)F)C(F)(F)F,-19%,-21,6%,6,16%,1.5,-3.3%
CC(=O)OCC(=O)Nc1ccccc1OC(F)F,25%,3,16%,10,9%,-1.3,x
S=C(Nc1ccc2c(c1)OCCO2)Nc1ccccc1Cl,-23%,3,18%,3,15%,x,-0.1%
O=c1[nH]c2c(c(=O)n1Cc1ccccc1)CCC2,-9%,-10,5%,6,-4%,1.8,3.4%
# (cont.)
SMILES,gsp ag,TRPV1 PAM,Sfp inh,CtBP-E1A blk,gsp antag,Menin-MLL FL inh,ClpP mod
Cn1c(CCN2CCCCC2)nc2cc(NC(=O)C3CCCCC3)ccc21,-37%[inhibitor],6,3%,6,-3%,-0.5,u
Cc1ccc(NC(=O)CS(=O)CC(=O)N(CC(=O)NC2CCCC2)c2ccc3c(c2)OCCO3)cc1 (stereo not given),16%[15.4 µM],-1,14%,4,6%,-0.6,x
CCN(CC)CCc1c(C)[nH]c(C(=O)OCc2ccccc2)c1C,-25%,-7,7%,-25,12%,-0.4,-2.1%
CCOc1ccc(C(=O)NCC(=O)OCC(=O)NC2CCCC2)cc1,8%[15.4 µM],3,11%,5,6%,-1.3,x
CC(=O)c1ccc(NC(=O)CN2CCC(NC(=O)C3CCCCC3)CC2)cc1,-2%[15.4 µM],-2,4%,-2,0%,-6.6,-0.6%
Fc1cccc(NC(=S)NNc2ccccc2)c1,u,-11,2%,-8,-3%,-11,-2.0%
CCCCn1c(N)c(N(CC(C)C)C(=O)c2cc(-c3ccc(F)cc3)nc3ccccc23)c(=O)[nH]c1=O,4%[15.4 µM],6,x,5,8%,x,x
COC(=O)CCS(=O)(=O)c1cc(Cl)ccc1Cl,1%,29,11%,9,5%,0.0,-0.1%
COc1ccc(CNC(=O)c2c(N)n(CCCN3CCOCC3)c3nc4ccccc4nc23)cc1,-8%,4,-27%,19,4%,5.2,u
O=C(COc1ccc2c(c1)CCC2)NCc1cccc(Cl)c1,-16%,7,2%,23,-2%,-1.0,-17%
COc1ccc2c(c1)c(C(=O)CN1CCC3(CC1)OCCO3)c(C)n2C,u,3,12%,0,3%,-4.3,-4.3%
CCOC(=O)c1cccc(NC(=O)N[C@@H](C)C(=O)OC)c1,-28%,9,11%,2,-7%,1.8,-4.4%
COc1cccc2cc(-c3nc(-c4cccs4)cs3)c(=O)oc12,30%,6,7%,17,6%,u,6.4%
N#C/C(=C(/O)c1ccc([N+](=O)[O-])o1)c1nc2ccccc2[nH]1,24%,4,5%,x,-5%,11,-0.7%
CCOCCCNCC(=O)Nc1ccc(OC(F)(F)F)cc1,-17%,-9,1%,5,10%,3.5,1.8%
Nc1ccccc1SCc1cn2ccccc2n1,14%[15.4 µM],7,18%,9,5%,0.2,-4.1%
Cc1cccc(C)c1NC(=O)COC(=O)c1nonc1N,30%,3,0%,-1,9%,-1.3,1.0%
Cc1csc(NC(=O)CSc2nc(C(C)C)nc3ccccc23)n1,-30%,1,15%,-3,0%,2.7,x
COC(=O)c1ccc(C)c(NC(=O)COC(=O)C2CC3CCCC(C2)C3=O)c1 (stereo not given),-38%[inhibitor],-4,x,3,12%,x,-1.2%
COC(=O)Cc1c(C)c2ccc(O)c(CN3CCCC(C)C3)c2oc1=O (stereo not given),21%,3,3%,7,7%,2.3,-93%
O=C(Cn1cc([N+](=O)[O-])cn1)NCc1ccccc1Cl,-3%[15.4 µM],x,x,1,6%,x,x
O=C(Nc1scc(-c2ccccc2)c1C(=O)O)c1ccc(F)cc1,13%,24,9%,x,-23%,-4.2,-2.8%
COc1ccc(NC(=O)CS(=O)(=O)c2cccc(Cl)c2)cc1,30%,9,7%,3,-9%,3.9,x
COc1cc2[nH]c3c(N4CCN(c5ccc(Cl)cc5)CC4)ncnc3c2cc1OC,4%,-1,u,-25,-6%,0.6,25µM*
Cc1cc(NC(=O)COc2ccc3ccccc3c2)no1,2%,21,17%,0,-6%,2.0,x
# (more compounds)
SMILES,gsp ag,TRPV1 PAM,Sfp inh,CtBP-E1A blk,gsp antag,Menin-MLL FL inh,ClpP mod
Cc1cc(C)c2oc(=O)cc(CN3CCOCC3)c2c1,28%,19,7%,0,-6%,3.9,-16%
CC(=O)c1ccc(S(=O)(=O)Nc2ccc(C(=O)N3CCC3)cc2)cc1,-7%,-2,x,10,-8%,x,0.9%
O=C(Cc1n[nH]c(=O)c2ccccc12)NC(c1ccccc1)c1ccccc1,26%,-20,-11%,2,14%,3.7,-3.5%
CN1C(=O)CCC(CCC(=O)O)(c2ccccc2O)C1=O (stereo not given),6%[15.4 µM],-30,9%,9,-1%,1.1,0.9%
OCC1(Cc2ccc(F)cc2)CCCN(CCCC(F)(F)F)C1 (stereo not given),-1%,-36,7%,-20,12%,-1.2,-3.8%
O=C(Nc1ccc(S(=O)(=O)N2CCCC2)cc1)c1ccc(Br)o1,26%[15.4 µM],-19,19%,-14,-12%,1.9,x
O=C1CC(C(=O)N2CCc3ccccc32)CN1c1ccccc1 (stereo not given),u,8,22%,2,-12%,-3.8,x
O=C(NC1CCN(Cc2ccccc2)CC1)c1cn(-c2ccccc2)nc1-c1cccnc1,5%[15.4 µM],-3,x,-3,0%,x,-0.6%
Cc1oc(-c2ccc(Cl)cc2)nc1CN1CCC(C(=O)NCC2CCCO2)CC1 (stereo not given),-5%,6,22%,4,4%,-1.8,-3.7%
O=C1/C(=C/c2ccccc2Cl)SC(=S)N1CCCC(=O)N(CCO)c1ccccc1,-26%,19,-22%,-14,u,5.7,0.0%
O=C(CSc1nc2ccccc2[nH]1)Nc1ccccc1F,1%,-17,-11%,-14,-5%,3.0,1.9%
COc1ccccc1NS(=O)(=O)c1cc(-c2cnc(C3CC3)o2)ccc1C,4%,3,3%,x,u,x,2.4%
Cc1ccc(OCCOCCn2cnc3ccccc3c2=O)cc1C,x,4,16%,x,x,1.8,x
O=C(NCc1ccc(OC(F)(F)F)cc1)c1ccc2c(c1)S(=O)(=O)c1ccccc1C2=O,-1%,x,x,x,-8%,x,1.6%
Cc1cc(C(=O)NC2CCCN(Cc3ccc(Cl)cc3)C2)n(C)n1 (stereo not given),-5%,-3,7%,0,-3%,x,-2.5%

# Exported with values under each structure: entries from further up.
# Every second line gives: gsp ag | TRPV1 PAM | Sfp inh | CtBP-E1A blk | gsp antag | Menin-MLL FL inh | ClpP mod
- COc1ccccc1NS(=O)(=O)c1cc(-c2cnc(C3CC3)o2)ccc1C
  4% | 3 | 3% | x | u | x | 2.4%
- Cc1ccc(OCCOCCn2cnc3ccccc3c2=O)cc1C
  x | 4 | 16% | x | x | 1.8 | x

# Screening results as filed in PubChem.
